UUG fidelity: modulators of yeast start codon fidelity, primary screen, whole organism, S. cerevisiae, single point, plate reader; S. cerevisiae UUG-firefly luciferase reporter, luminescence/redox ratio; activity score, % at 18.7 µM; hit rate 0.13% among 350,000; AID 602363, 2012;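 active = replicate mean at a twofold rise or more, about +100% in these data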;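 note: firefly luciferase made from a UUG start codon reports start codon fidelity; reporter light over untreated wells divided by growth signal over untreated wells; some hits fall short of that in this replicate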
Rce1 inh: yeast Rce1p protease inhibitors, primary screen, biochemical, fluorescence, cell-free homogeneous; hit rate 0.27% among 290,000; CAAX prenyl protease 2 (Saccharomyces cerevisiae (strain ATCC 204508 / S288c)), Q03530; yeast membranes, quenched prenylated peptide cleavage fluorescence; calls only; AID 2563, 2010;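 active = fall in fluorescence gain of 50% or more versus controls, with final raw signal at or below 3038400; inconclusive = same 50% fall but final raw signal above 3038400; inactive = fall in fluorescence gain under 50%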;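 note: plate controls were neutral control wells for no effect and wells lacking membranes for full effect; tested at 10 µM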
Target sequence (Q03530 whole entry, looked up): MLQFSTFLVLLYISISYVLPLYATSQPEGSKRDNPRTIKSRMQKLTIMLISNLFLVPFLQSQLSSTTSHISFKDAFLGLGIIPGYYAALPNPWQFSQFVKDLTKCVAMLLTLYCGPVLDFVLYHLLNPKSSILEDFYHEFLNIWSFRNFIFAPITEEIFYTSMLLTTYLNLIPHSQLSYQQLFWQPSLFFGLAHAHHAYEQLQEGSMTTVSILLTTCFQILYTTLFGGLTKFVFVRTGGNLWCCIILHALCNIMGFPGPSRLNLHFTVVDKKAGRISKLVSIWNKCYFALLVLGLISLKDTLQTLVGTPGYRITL
HIV Env fusion: inhibitors of HIV-1 Env-driven cell-cell fusion, primary screen, HeLa-JRFL effector, CEM21 target cells, luciferase | hit rate 1.1% among 360,000 | AID 651610, 2012 | inhibition, % at 12.3 µM;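 active = mean replicate inhibition score of at least 50 and every replicate individually at or above 50; inconclusive = only one of the two criteria met; inactive = mean below 50 and not all replicates reaching 50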;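 note: 0% = plate neutral controls and 100% = maraviroc near 300 nM; one replicate is shown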
MT1-MMP act inh: blockers of MT1-MMP proenzyme processing, primary screen, HT1080 RFP-PRO-GFP cells, GFP/RFP fluorescence | GFP/RFP ratio fluorescence, overnight; percent of plate control window, DMSO zero | hit rate 0.061% among 360,000 | GFP/RFP ratio change, % at 20 µM;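 active = GFP/RFP ratio change of at least 30% with cell ATP level not reduced by more than half and red fluorescence within 50% of control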; note: strong numbers were not always called active
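Assay system – RFP-PRO-GFP reporter HT1080 cells · Compound dosing – single dose of 20 µM compound, 1% DMSO final · Incubation – overnight compound exposure at 37 °C · Measure – GFP/RFP fluorescence ratio · Benchmarks – DMSO wells and RFP-L50D-GFP cells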
eIF4H inh: human eIF4H binding inhibitors, primary screen, translation initiation inhibitor project, biochemical, uHTS, fluorescence polarization. hit rate 0.94% among 290,000. inhibition, % at 35 µM. Eukaryotic translation initiation factor 4H (Homo sapiens), Q15056. eIF4H fluorescence polarization binding assay;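 active = 50% or more with normal probe brightness, or confirmed in later tests; inconclusive = above 50% with abnormal brightness, or retests that disagree; inactive = below 50% or failed in later tests; about a fifth of its hits are not listed in these tables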;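 note: calls also rest on retests at 20 µM and on dose response follow-up; 0% = protein and probe with vehicle and 100% = probe without protein; strong numbers were not always called active; many hits fall short of the cut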
PABP polyA inh: PABP poly(A) RNA binding inhibitors, primary screen, biochemical, fluorescence polarization, uHTS. Polyadenylate-binding protein 1 (Homo sapiens), P11940. inhibition, % at 35 µM. hit rate 1% among 290,000. AID 2014, 2009;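 active = 50% or more with normal probe brightness, or confirmed in later tests; inconclusive = above 50% with abnormal brightness, or retests that disagree; inactive = below 50% or failed in later tests; about a fifth of its hits are not listed in these tables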;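 note: calls also rest on retests at 20 µM and on dose response follow-up; controls were probe without protein and protein plus probe with vehicle; some compounds called inactive have numbers as strong as hits; many hits fall short of the cut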
CSC inhib: cancer stem cell viability inhibitors, primary screen, luminescence. cancer stem cell-like cells viability. inhibition, % at 7.5 µM. hit rate 1.1% among 300,000;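 active = mean at 75% or more and at least half the replicates too; inconclusive = mean and replicates disagree; tested in HMLE shEcad cells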;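 note: 0% = median of negative and 100% = median of positive control wells; the first replicate is given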
eIF4H inh retest: recorded beside eIF4H inh, whose call it bears; inhibition, %; compound at 20 µM; confirmation average;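 mean of two retest wells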
PABP polyA inh retest: also measured in PABP polyA inh; calls as there; inhibition, %; compound at 20 µM; confirmation repeats;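 mean of two retest wells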
MT1-MMP act inh RFP: second read-out of MT1-MMP act inh, no call of its own (marks repeat the call); RFP signal change, %; measured here: RFP expression control read;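 0 = vehicle wells; hits needed this value within 50% of zero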
Active calls of the source: *; i = inactive; ? = inconclusive; / = not tested or not shown; & = joins results of further samples. A portion of the library; rates above refer to the full screens.

SMILES	UUG fidelity	Rce1 inh	HIV Env fusion	MT1-MMP act inh	MT1-MMP act inh RFP	eIF4H inh	PABP polyA inh	CSC inhib	others
Cc1onc(-c2ccccc2)c1C(=O)NCc1cccc(Cl)c1	-15	i	10	-2	-3	3	5	-5
Cc1ccc(NC(=O)CN(C)c2ccc(S(=O)(=O)N3CCN(C)CC3)cn2)cc1	-20	i	2	12	4	-6	-9	16
CN(C)/N=C/c1ccc(Sc2ccc([N+](=O)[O-])cc2[N+](=O)[O-])o1	/	i	15	-4	1	-6	6	?
O=C(c1cc2cc(Cl)ccc2[nH]1)N1CCN(C(=O)c2ccco2)CC1	-11	i	11	-3	-1	-8	-6	-21
CCOCCCn1c(C)nc2c(c1=O)c1nc3ccccc3nc1n2CCC1=CCCCC1	-10	i	/	-16	-15	-6	-14	11
O=C(COc1ccc([N+](=O)[O-])cc1)NC(C(=O)O)C(O)c1cccc([N+](=O)[O-])c1 (stereo not drawn)	/	i	-6	-2	1	-4	5	1
COCCCNC(=O)CC(NCCCOC)C(=O)O (stereo not drawn)	/	i	-10	-3	0	3	-1	-1
O=C(CCC1CCCCC1)Nc1c2c(nn1-c1ccc(F)cc1)CS(=O)C2 (stereo not drawn)	-13	i	10	-2	-1	-10	-4	7
NC(=O)c1nsc(C(=O)N(CC(=O)NC2CCCC2)c2ccc(F)c(Cl)c2)c1N	/	i	-27	-2	-2	-2	2	-6
CCN(CC)S(=O)(=O)c1cccc(C(=O)NCC2CCCCC2)c1	-1	i	1	0	-4	-1	5	/
CS(=O)(=O)Nc1ccc(-c2cnc3cccnn23)cc1	-28	/	-1	-12	-8	/	/	/
COc1ccc(C2=CC(=O)C[C@H](c3ccc(Cl)cc3)C2)cn1	-20	/	12	5	-4	/	/	47
COc1ccc(CNC(=O)C2(CC3CC(c4ccccc4)=NO3)CCNCC2)cc1 (stereo not drawn)	14	i	-5	2	6	/	/	6
O=C1c2ccccc2C(=O)N1Cc1nc(-c2ccccn2)no1	-18	i	/	-2	-1	-11	5	-3
COc1ccc(CN(Cc2ccc(C(=O)O)cc2)C(=S)Nc2ccc(C)cc2)cc1OC	-15	i	12	1	3	-1	1	-4
CC(C)c1cccc(C(C)C)c1NC(=O)COc1nncc2ccccc12	/	i	-5	8	5	-2	8	-4
Cc1nc(OCc2ccccc2)c2sc3nc4c(cc3c2n1)COC(C)(C)C4	-4	i	-3	-8	-12	-4	-10	/
CCN(CC)C(=O)C1=C(C)N(CCCOC)C(=O)C(CC(=O)NCCN2CCOCC2)C1 (stereo not drawn)	-2	/	19	1	2	/	/	/
O=C(CCCN1C(=O)/C(=C\c2ccco2)SC1=S)Nc1ccc(O)cc1C(=O)O	-11	i	-1	13	25	/	/	4
CC1CN(C(=O)Cn2c(=O)oc3ccccc32)CC(C)O1 (stereo not drawn)	4	i	-11	-6	0	17	-1	-7
COC(=O)C1CCN(C(=O)c2ccccc2Oc2ccccc2)CC1	13	i	-32	-3	-3	0	4	/
O=C(NC1CCCC1)C1CCCN1C(=O)Nc1ccccc1 (stereo not drawn)	-9	i	-1	1	-1	2	-5	/
CCC(C(=O)N1CCOCC1)n1c2ccccc2c2nc(=O)cc(C)n21 (stereo not drawn)	-10	i	3	0	4	-4	2	-5
COc1ccc(NC(=S)NN(C)C(=S)Nc2ccc(OC)cc2)cc1	/	i	36	4	-9	-4	-9	123*
C/C(CC(=O)NC1CCCCC1)=N\NC(=O)c1ccc(Br)cc1	2	/	-5	-3	0	-5	12	8
O=c1c2nnn(-c3ccc(Br)cc3)c2ncn1Cc1ccccn1	-5	i	11	1	2	0	3	3
COc1cc(C#N)ccc1OC(=O)Cc1cc(OC)c(OC)c(OC)c1	-13	i	-18	-1	2	-12	2	-6
Cc1ccc(NC(=O)c2ccccc2N2C(=O)C3C4C=CC(C5CC45)C3C2=O)cc1C (stereo not drawn)	16	i	/	-3	0	4	-2	9
CSc1ccc(CCNC(=O)C2CCN(c3nnc(-n4cccc4)s3)CC2)cc1	5	i	10	5	-1	2	-5	/
COc1ccccc1S(=O)(=O)N(C)C[C@H]1OCc2cnnn2CCCC(=O)N([C@@H](C)CO)C[C@@H]1C	-2&34	/	21	3	3	/	/	/
COc1ccc(NC(=O)C2CC2)cc1-n1cnnn1	-10	i	-100	1	5	-1	12	/
CCNC(=O)COc1ccc(/C=N/NC(=O)c2cccnc2)cc1OC	/	i	-1	0	5	2	-5	-17
CNC(=O)NC(=O)COC(=O)CCc1nc(=O)c2ccccc2n1C	-11	i	8	5	5	5	-1	-10
Cc1n(Cc2ccccc2)c2ccccc2[n+]1Cc1ccccc1	-11	i	-8	1	-27	-6	6	-11
Cc1ccc(NC(=O)C2C3CCC(O3)C2C(=O)O)cc1Cl (stereo not drawn)	-15	i	-11	7	7	10	5	5
COc1cc(O)c2c(c1)COC2=O	/	i	-3	4	4	-8	?	-17
Cc1cc(C(C#N)c2cccc(Cl)c2)n2ncnc2n1 (stereo not drawn)	-10	i	/	8	5	7	-2	23
COc1cccc(C(NC(C)=O)c2nc(-c3cc4ccccc4o3)cs2)c1 (stereo not drawn)	-29	/	12	-2	-4	/	/	/
COc1ccc(CN2CCn3ncc(C(=O)Nc4cc(C)cc(C)c4)c3C2=O)cc1	-3	i	/	2	-7	1	9	9
CCN1C(=O)CC(N2CCC(C(=O)N3CCCCCC3)CC2)C1=O (stereo not drawn)	/	i	1	0	4	-6	-20	5
O=C(O)CSc1nnc(-c2cccc(S(=O)(=O)N3CCCCC3)c2)o1	/	i	-4	-1	2	-5	5	9
CN(CC(=O)NCc1ccc2c(c1)OCO2)S(=O)(=O)c1ccc(Cl)cc1	1	/	/	-2	-4	/	/	-14
CCOc1ccccc1NC(=O)COC(=O)CC(NC(N)=O)c1ccc(Cl)cc1 (stereo not drawn)	/	i	1	2	4	7	6	-9
O=C(NCCc1ccccc1)c1cc2ncc(Br)cn2n1	-14	i	/	-2	4	40	5	-6
O=S(=O)(O)c1ccc(O)c2cc(Nc3ccccc3)ccc12	14	/	6	-2	-9	/	/	/
O=C(c1cc(Cl)nc2ccccc12)N1CCc2ccccc2C1	/	i	14	-2	-2	-3	4	-1
Cc1cc(C)c(NC(=O)c2ccc(S(=O)(=O)N3CCOCC3)cc2)c(C)c1	1	i	18	1	3	-14	-2	-9
C=CCSC1=N/C(=C\c2ccc3c(c2)OCO3)C(=O)S1	-8	i	/	-2	3	-2	-4	-6
Cc1cccc(OCC(=O)NCc2cc(C)nc3ccccc23)c1	-18	/	4	0	-15	16	-2	-10
COc1ccc(C(C)=O)cc1Cn1c(C)c(C(=O)NCc2cccc(C(F)(F)F)c2)sc1=O	-8	/	-90	3	-9	/	/	/
O=C(NCc1ccccc1)c1nc2ccccc2s1	5	i	-3	1	3	5	-3	4
CCC/C(C#Cc1ccsc1)=C1/c2ccccc2C(=O)N1c1ccccc1	-8	/	7	-6	-6	/	/	66
CCCn1nnc(NC(=O)c2cc(Br)ccc2OC)n1	-18	i	-15	5	3	0	-8	3
COc1ccc(S(=O)(=O)NCC2CC3C=CC2C3)cc1OC (stereo not drawn)	-11	i	2	-2	-3	-5	-2	-18
O=C(OC1CCS(=O)(=O)c2sccc21)c1ccccc1 (stereo not drawn)	4	i	/	5	3	-8	-6	-5
S=c1[nH]ncc2ccccc12	-31	i	/	2	1	4	6	5
COc1cc(/C=N/NC(=O)c2cnn3c(C)cc(-c4ccccc4)nc23)ccc1O	-7	i	/	-7	-1	0	7	-12
CCN(CC1COc2ccccc2O1)C(=S)Nc1ccc(F)cc1 (stereo not drawn)	-17	i	14	-2	-10	-12	32	-5
Cc1noc(/C=C/N(C)C)c1S(=O)(=O)N1CCCC(C(=O)NCc2ccc(Cl)cc2)C1 (stereo not drawn)	-27	/	/	-24	-5	0	-7	-17
COc1ccc(CCNC(=O)c2cc(C)oc2C)cc1	-15	i	18	-3	-2	6	-23	16
Other records.
SMILES	UUG fidelity	Rce1 inh	HIV Env fusion	MT1-MMP act inh	MT1-MMP act inh RFP	eIF4H inh	PABP polyA inh	CSC inhib	others
C=CCNc1nc(=S)[nH]c2cc(OC)c(OC)cc12	/	i	8	1	4	-3	13	-2
CC(OC(=O)c1ccc2ncsc2c1)C(=O)N(C)C1CCCCC1 (stereo not drawn)	-2	/	9	1	-1	/	/	6
CC(C)(C)c1ccc(C(=O)Nc2nonc2-c2nc3ccccc3[nH]2)cc1	-23	i	/	7	-4	1	-4	7
O=C(CNC(=O)c1ccc2c(c1)OCO2)N/N=C/c1cc(Br)ccc1O	-14	i	-2	0	-1	9	-1	/
Cc1ccc(N2C(=O)CC(Sc3ncccn3)C2=O)cc1C (stereo not drawn)	-11	i	-6	-1	-2	-8	-2	43
C=CCn1c(C)nnc1SCC(=O)NC1CC1	-8	i	62*	-2	3	-8	2	12
CC(Cc1cccs1)NC(=S)Nc1ccc(Cl)cc1 (stereo not drawn)	-38	i	5	7	-11	-4	-5	11
COc1ccc(-c2cc(C(F)(F)F)nc(-n3ccnc3C)n2)cc1	/	i	14	-10	-15	2	-15	7
Cc1ccc(C2NC(=O)c3sc(=S)n(-c4ccccc4)c3N2)cc1 (stereo not drawn)	-7	i	0	-5	-2	-3	-6	8
CCC(=O)/C=C1\Sc2ccc(OC)cc2N1CCO	-15	i	-314	7	6	0	-11	-4
C#CCOCCOCCOCCNc1nc(N2CCN(C(=O)[C@H](CCC(=O)O)n3cc([C@@H](N)[C@H](C)CC)nn3)CC2)nc(N2CCN(C(=O)[C@H](CCC(=O)O)n3cc([C@@H](N)CCSC)nn3)CC2)n1	-8	/	16	4	9	/	/	-18
CS(=O)(=O)N(Cc1ccc(Cl)cc1)c1ccc(C(=O)NCCC2=CCCCC2)cc1	-13	i	85*	2	-6	1	11	-1
NC(=O)CC(NC(=O)c1ccc(Br)cc1)c1ccc(NC2CCCCCC2)c([N+](=O)[O-])c1 (stereo not drawn)	-12	i	-22	12	1	56	-6	18	eIF4H inh retest=-16;PABP polyA inh retest=22
O=C(O)c1ccc2c(c1)N(Cc1ccccc1)C(=O)c1ccccc1S2=O (stereo not drawn)	-15	i	3	4	-2	-6	4	-13
O=C(N/N=C/c1ccc([N+](=O)[O-])cc1)c1cc2ccccc2o1	-6	i	15	5	2	-4	-12	2
COC(=O)C1CC2(C(=O)OC)CC(C(=O)OC)(CC(C(=O)OC)C2=O)C1=O (stereo not drawn)	2	/	26	-1	3	/	/	/

By substructure, those above containing a CF3 group
SMILES	UUG fidelity	Rce1 inh	HIV Env fusion	MT1-MMP act inh	MT1-MMP act inh RFP	eIF4H inh	PABP polyA inh	CSC inhib	others
COc1ccc(C(C)=O)cc1Cn1c(C)c(C(=O)NCc2cccc(C(F)(F)F)c2)sc1=O	-8	/	-90	3	-9	/	/	/
COc1ccc(-c2cc(C(F)(F)F)nc(-n3ccnc3C)n2)cc1	/	i	14	-10	-15	2	-15	7
